# From PubChem
# GALR2 ag: GALR2 receptor agonists, primary screen, cell-based | Galanin receptor type 2 (Homo sapiens), O43603 | GALR2-expressing cells, agonist activation read-out | activation, %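 (tested at 5 µM)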 | hit rate 0.48% among 140,000 | AID 803, 2007;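 active = above mean plus 3 SD of all compounds, about 5% in these data, not always enough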;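 also: 0% = vehicle buffer wells and 100% = reference agonist at full effect; tested in CHO reporter cells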
# Target sequence (O43603 whole entry, looked up): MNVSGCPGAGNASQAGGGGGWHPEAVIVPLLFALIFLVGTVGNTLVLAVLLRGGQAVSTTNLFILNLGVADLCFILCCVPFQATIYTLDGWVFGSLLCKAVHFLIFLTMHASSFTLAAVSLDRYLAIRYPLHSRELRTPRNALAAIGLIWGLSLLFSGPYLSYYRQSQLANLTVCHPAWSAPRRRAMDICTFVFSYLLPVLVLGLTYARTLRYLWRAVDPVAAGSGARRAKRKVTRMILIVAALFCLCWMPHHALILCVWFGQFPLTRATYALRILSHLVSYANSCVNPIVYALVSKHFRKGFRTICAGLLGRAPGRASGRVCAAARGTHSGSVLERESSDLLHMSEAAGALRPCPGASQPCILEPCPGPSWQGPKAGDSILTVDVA
# PKD1 kinase inh: inhibitors of human PKD1 kinase, biochemical, fluorescence polarization | AID 797, 2007 | inhibition, %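 (about 10 µM by stock and volumes)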 | Serine/threonine-protein kinase D1 (Homo sapiens), Q15139 | hit rate 0.056% among 200,000 | PKD1 kinase fluorescence polarization assay;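 active = inhibition of 50% or more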;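 also: controls were vehicle for no effect and a reference inhibitor for full effect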
# HSV replic up: enhancers of HSV replication in host cells, fold increase, host cell viability | HSV replication augmentation in cells | hit rate 0.005% among 220,000 | maximum fold increase;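 active = peak rise of 1.5-fold or more in the series; tested in PC3 cells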;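 also: first round at 10 µM; read as green reporter fluorescence; hits show the peak of a series up to 25 µM; 1 = signal of infected wells without compound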
# Insulin prom inh: inhibitors of insulin promoter-driven GFP, primary screen, imaging, TRM-6 cells (human fetal islet line), eGFP reporter, cell count. reporter expression induced with tamoxifen. inhibition, % at 2 µM. hit rate 0.9% among 130,000. AID 1273, 2008;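 active = inhibition above the mean plus 3 SD, with well images judged a real hit on visual review, cut at about 60% in these data, passing the limit was not always enough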
# RGS16-Gao HTS: modulators of RGS16 binding to Galphao, primary screen, biochemical, human proteins, multiplexed bead flow cytometry | Regulator of G-protein signaling 16 (Homo sapiens) + Guanine nucleotide-binding protein … | bead-based flow cytometry RGS16-Galphao binding, fluorescence; actives lie on both sides | binding response (% of control), % at 10 µM | hit rate 0.38% among 220,000;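 active = below 25% or above 175%, edge rows of some plates excepted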;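 also: Galphao activated by GDP with aluminum fluoride before binding; 100% = wells without compound and 0% = beads without RGS; some results beyond the cut were filed as inactive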
# Target sequence (O15492 whole entry, looked up): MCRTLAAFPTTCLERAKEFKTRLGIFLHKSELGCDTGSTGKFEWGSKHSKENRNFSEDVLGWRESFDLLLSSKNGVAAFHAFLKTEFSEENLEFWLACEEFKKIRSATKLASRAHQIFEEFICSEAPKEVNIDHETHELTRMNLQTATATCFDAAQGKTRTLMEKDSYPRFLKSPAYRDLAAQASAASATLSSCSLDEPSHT
# Target sequence (P09471 whole entry, looked up): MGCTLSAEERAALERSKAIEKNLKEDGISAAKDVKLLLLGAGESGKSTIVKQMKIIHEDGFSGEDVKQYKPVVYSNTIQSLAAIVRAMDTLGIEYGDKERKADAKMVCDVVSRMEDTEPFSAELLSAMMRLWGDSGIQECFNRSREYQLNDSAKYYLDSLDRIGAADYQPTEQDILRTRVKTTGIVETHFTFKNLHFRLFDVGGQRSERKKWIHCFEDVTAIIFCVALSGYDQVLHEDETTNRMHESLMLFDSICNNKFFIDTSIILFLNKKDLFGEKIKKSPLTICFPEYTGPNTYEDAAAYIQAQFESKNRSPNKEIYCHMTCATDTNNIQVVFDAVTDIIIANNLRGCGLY
# Insulin prom inh cell count: also measured in Insulin prom inh; calls as there; normalized cell count, %; measured here: cell count, toxicity; reference of the scale not given here;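 cells exposed to compound for 48 h; stained nuclei by imaging scaled within each plate; lower means fewer cells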
# HSV replic up primary fold: recorded beside HSV replic up, whose call it bears; fold increase; compound at 10 µM; measured here: primary screen fold increase 10 uM; tested in PC3 cells;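 GFP signal in the first replicate; 1 = infected wells without compound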
# Starred values were filed as active, the others as inactive; i = inactive; · = no result given.
SMILES,GALR2 ag,PKD1 kinase inh,HSV replic up,HSV replic up primary fold,Insulin prom inh,Insulin prom inh cell count,RGS16-Gao HTS
CC(C)(C)NC(=O)c1ccc2c(c1)N(CC(=O)N1CCN(c3ccc(F)cc3)CC1)C(=O)C(C)(C)O2,0.8,-5,i,0.88,·,·,97
CCCCc1nc2ccccc2c(C(=O)O)c1C,0.2,1,i,0.8,-35,75,103
CCc1cccc2c3c([nH]c12)C(CC)(CC(=O)O)OCC3 (centres undefined),-1.0,-1,i,1,18,93,103
COc1ccc(C2=Nn3c(nnc3-c3ccco3)SC2)cc1OC,-0.8,-6,i,0.71,19,134,100
COc1c(Cl)cc(C(=O)NN)cc1Cl,·,5,i,0.75,·,·,102
COc1ccc(N2CCN(CCNC(=O)C3CCN(S(=O)(=O)c4cccs4)CC3)CC2)cc1,-2.1,3,i,0.65,0,35,106
Cc1cccc(N2CCN(C(=O)NCc3ccc(Cl)cc3)CC2)c1,-0.9,1,i,0.8,-70,94,114
c1ccc(CNc2ccc(CNc3ncn[nH]3)cc2)cc1,-1.8,2,i,0.89,34,88,95
COc1ccc(C(O)c2nccn2C)cc1 (centres undefined),-2.1,-4,i,0.73,16,169,97
O=C(NC(=S)N1CCN(c2c(Cl)cccc2[N+](=O)[O-])CC1)c1cccs1,-1.1,-14,i,0.78,-4,78,97
CCOC(=O)c1cc2cc(-c3c(C(=O)OCC)oc4cc(O)cc(O)c4c3=O)ccc2o1,0.8,-6,i,0.93,·,·,98
O=C(CNc1cc(S(=O)(=O)N2CCOCC2)ccc1N1CCCC1)NCc1ccco1,·,-6,i,0.94,-7,123,100
O=C(CNC(=O)c1ccco1)OCc1c(F)cccc1Cl,-1.8,1,i,0.65,·,·,106
Nc1nc(SCC(=O)Nc2ccccc2C(F)(F)F)[nH]c(=O)c1-c1ccccc1,·,-1,i,0.86,·,·,108
O=C(NCCN1CCOCC1)C(=O)NCC1CCCO1 (centres undefined),-0.3,-1,i,0.74,-23,107,110
COc1cccc(-n2c(-c3cccc(S(=O)(=O)N(C)C)c3)n[nH]c2=S)c1,·,-3,i,1,-40,80,93
CC1(C)CCCC2=C1CC1C(=O)N(c3ccccc3)C(=O)C1C2 (centres undefined),-0.6,-5,i,1,·,·,104
Cc1ccccc1COC[C@H](CC(C)C)N1CCN(C(=O)c2cccc(C(F)(F)F)c2)CCC1=O,-0.4,0,i,1.1,-50,110,100
COc1ccc(CCNC(=O)[C@@H](NC(=O)c2ccccc2F)C(C)C)cc1OC,·,-8,i,1,·,·,104
O=C(Cc1ccc(Cl)cc1)NN1C(=O)c2ccccc2C1=O,-1.5,-4,i,0.99,18,110,104
CSCCC(NS(=O)(=O)c1ccc(Cl)cc1)C(=O)OCc1c(Cl)cccc1Cl (centres undefined),1.0,-10,i,0.91,-46,91,99
Cc1csc(NC(=O)C2CCCN(S(=O)(=O)c3cccnc3)C2)n1 (centres undefined),-2.0,6,i,0.94,·,·,92
CCCCN1C(=O)c2ccc(C(=O)Nc3cccc(C)c3C)cc2C1=O,-2.1,0,i,0.84,-10,83,98
CCN(CC)S(=O)(=O)c1ccc(N2CCOCC2)c(NC(=O)c2ccc(NC(C)=O)cc2)c1,·,·,i,0.89,·,·,96
COCCNC(=O)Cn1c(=O)n(Cc2ccco2)c(=O)c2ccccc21,-4.0,-15,i,1,86*,83*,101

# Three compounds drawn at random from those above:
SMILES,GALR2 ag,PKD1 kinase inh,HSV replic up,HSV replic up primary fold,Insulin prom inh,Insulin prom inh cell count,RGS16-Gao HTS
CC(C)(C)NC(=O)c1ccc2c(c1)N(CC(=O)N1CCN(c3ccc(F)cc3)CC1)C(=O)C(C)(C)O2,0.8,-5,i,0.88,·,·,97
COc1ccc(CCNC(=O)[C@@H](NC(=O)c2ccccc2F)C(C)C)cc1OC,·,-8,i,1,·,·,104
COc1c(Cl)cc(C(=O)NN)cc1Cl,·,5,i,0.75,·,·,102

# Continuation:
SMILES,GALR2 ag,PKD1 kinase inh,HSV replic up,HSV replic up primary fold,Insulin prom inh,Insulin prom inh cell count,RGS16-Gao HTS
Cc1ccc(NC(=O)C2CC(=O)NC(N3CCCCC3)=N2)cc1Cl (centres undefined),-1.9,-4,i,0.94,36,149,105
CC(NC(=O)C(=O)NN=C1CCCCCCC1)c1ccccc1 (centres undefined),-2.9,-2,i,0.69,·,·,96
Cc1nc(SCc2ccc(Cl)cc2)ncc1C(=O)O,·,3,i,1.2,-15,106,102
O=C(CNC(=O)c1cccc(F)c1)OCc1cc(=O)n2cc(Br)ccc2n1,-0.4,1,i,0.82,·,·,77
CCOc1ccc(-c2nnc(NC(=O)c3ccc(OCC(C)C)c(OC)c3)o2)cc1,-0.1,-9,i,0.94,·,·,98
CCn1c(=O)c(C(=O)Nc2ccccn2)c(O)c2ccccc21,·,-5,i,1,14,53,104
Clc1ccc(-n2nnnc2CN2CCOCC2)cc1Cl,0.4,-7,i,0.95,20,112,107
O=C(OCC(=O)N1CCC(Cc2ccccc2)CC1)c1ccc[nH]c1=O,-2.1,-5,i,0.94,14,40,104
CCC(C)C(NC(C)=O)C(=O)NC(=O)NC(c1ccccc1)c1ccccc1 (centres undefined),-2.6,-2,i,0.96,11,124,107
COc1ccc(NC(=O)Nc2c(C)n(-c3ccccc3)c(=O)n2C)cc1OC,-0.8,-1,i,0.97,19,128,95
CN(Cc1ccccc1)C(=O)CCc1ccccc1,-0.8,-5,i,0.99,-15,91,103
COc1ccccc1N1CCc2c(C)nc3c(OC)cccc3c21,-3.0,-3,i,0.57,·,·,97
Cc1ccc(CC(=O)O/N=C(\N)c2cccc([N+](=O)[O-])c2)cc1,-0.7,-15,i,0.94,36,88,29
O=C(NCCCCNC(=O)C(F)(F)F)C(F)(F)F,·,5,i,0.96,·,·,97
COc1ccc(Nc2nc(NCC3CCCO3)nc(N)c2[N+](=O)[O-])cc1 (centres undefined),·,·,i,0.96,·,·,98
CCCc1nnc(NC(=O)CN2C(=O)c3ccccc3C2=O)s1,-2.3,-2,i,0.93,13,182,103
CN(C1CCCCC1)S(=O)(=O)c1ccc(NC(=O)c2ccco2)cc1,-0.6,2,i,0.81,-21,96,98
CCN1CCN(C(c2nnnn2Cc2ccc3c(c2)OCO3)C(C)C)CC1 (centres undefined),-3.3,-9,i,1.1,52,83,100
COc1ccc2[nH]c(O)c(N=NC(=O)Cc3cccs3)c2c1,·,·,i,0.84,·,·,102
CCn1c(COc2ccc(OC)cc2)nnc1SCC(=O)Nc1cc(OC)ccc1OC,-3.8,-13,i,0.91,13,84,102
O=c1cc(Cn2nnc(-c3ccc(Cl)cc3)n2)nc2sccn12,-0.9,-6,i,0.94,-11,115,109
CCNC(=S)Nc1cc(Cl)ccc1Oc1ccccc1,-1.2,-12,i,0.93,0,121,95
Cc1ccc2nc(NC(=O)C3CCCN(S(=O)(=O)c4cccc5nsnc45)C3)sc2c1 (centres undefined),0.0,-3,i,0.99,·,·,72
CCOC(=O)CSc1nc2ccccc2c(=O)n1CC(C)C,·,3,i,1.1,·,·,97
O=P(O)(CCc1ccccn1)CN1CCOCC1,-0.4,4,i,0.78,·,·,·

# Profiles, quoted from the list. Order of values: GALR2 ag, PKD1 kinase inh, HSV replic up, HSV replic up primary fold, Insulin prom inh, Insulin prom inh cell count, RGS16-Gao HTS
# Profile of COc1ccc(Nc2nc(NCC3CCCO3)nc(N)c2[N+](=O)[O-])cc1 (centres undefined) = ·, ·, i, 0.96, ·, ·, 98
# Profile of CC1(C)CCCC2=C1CC1C(=O)N(c3ccccc3)C(=O)C1C2 (centres undefined) = -0.6, -5, i, 1, ·, ·, 104
# Profile of COc1ccc(N2CCN(CCNC(=O)C3CCN(S(=O)(=O)c4cccs4)CC3)CC2)cc1 = -2.1, 3, i, 0.65, 0, 35, 106

# Further structures follow.
SMILES,GALR2 ag,PKD1 kinase inh,HSV replic up,HSV replic up primary fold,Insulin prom inh,Insulin prom inh cell count,RGS16-Gao HTS
O=C(NCCCN1CCOCC1)c1sc2cc([N+](=O)[O-])ccc2c1Cl,·,3,i,0.94,·,·,25*
Cc1c(/C=N/NC(=O)c2cccs2)c2ccccc2n1Cc1ccccc1Cl,·,·,i,0.81,·,·,101
CC1CC(=O)Nc2ccccc2N1S(=O)(=O)c1ccc(Br)cc1 (centres undefined),-1.4,-11,i,0.93,4,105,95
CC1Cc2cc(/C(O)=C3/C(=O)C(=O)N(Cc4ccco4)C3c3cccs3)ccc2O1 (centres undefined),2.7,2,i,1,19,43,94
O=[N+]([O-])c1ccccc1CNC1CCCCCC1,·,-7,i,0.87,·,·,127
CC1(c2nnc(-c3ccccc3)o2)CC(c2cccc(Cl)c2)=NO1 (centres undefined),·,·,i,1.1,·,·,96
CN=c1scc(C)n1/N=C/c1ccc2c(c1)OCO2,-1.6,6,i,0.89,15,106,245
CCN(c1ccccc1)c1nc(C#N)nc(N(CC)c2ccccc2)n1,·,·,i,0.9,·,·,99
CCOc1cc(/C=N/N=C(N)N)ccc1OCc1ccc(Cl)cc1,1.2,13,i,0.55,-41,82,106
COC(=O)c1c(F)c(F)c(NCCO)c(F)c1F,-1.6,-5,i,0.98,·,·,102
COc1ccc(OC)c(Cc2nnc(CCC(=O)N3CCCCC3)o2)c1,·,1,i,0.9,·,·,103
O=C1NC(=Nc2ccc(F)cc2)SC1Cc1ccc(F)cc1 (centres undefined),·,·,i,0.84,·,·,103
CCN(CC)CC(=O)N1CCCC(C(=O)c2ccccc2OC)C1 (centres undefined),·,-6,i,0.77,15,138,113
CCCCS(=O)(=O)c1sc2nc(C)cc(C)c2c1N,-3.1,-10,i,0.88,-3,144,105
Cc1nc(-c2ccccn2)sc1C(=O)Nc1ccc(Cl)c(Cl)c1,-2.7,-14,i,0.86,-67,111,102
CNC(=O)c1cc(C)c(-c2ccccc2)s1,-0.7,6,i,1.1,89*,106*,94
O=C(/C=C/c1ccccc1)NC(NC(=S)Nc1cccc(O)c1)C(Cl)(Cl)Cl (centres undefined),-0.2,-4,i,0.91,26,123,99
CC1=C(C(=O)Nc2ccccc2)C2(CCCCC2)C(C#N)=C(SCC(N)=O)N1,-0.2,-2,i,0.74,-6,75,99
CCN(CC)CC(=O)Nc1ccc(Oc2ccc(NC(=O)CN(CC)CC)cc2)cc1,·,-4,i,0.74,·,·,96
O=c1[nH]c(/C=C/c2ccccc2[N+](=O)[O-])nc2ccccc12,-0.6,-6,i,1,-267,111,98
O=C(Cn1cc(C(=O)c2ccco2)c2ccccc21)NC1CCCC1,-0.5,-3,i,0.99,0,155,98
CCOc1ccc(N2C(=O)CS/C2=N/NC(=O)COc2ccc3ccccc3c2)cc1,-1.1,3,i,1,-38,53,96
COC(=O)C1=C(C)NC(=O)C1(NS(=O)(=O)c1ccc(C)cc1)C(F)(F)F (centres undefined),-0.1,-2,i,1.1,36,83,102
[O-]/C(=C(\C(=S)NCc1ccccc1)[n+]1ccccc1)c1ccc(Cl)s1,·,-11,i,0.9,-36,196,97
Cc1cc2nc(C)c(Cl)c(=O)n2[nH]1,·,5,i,1,·,·,105

# (list continues)
SMILES,GALR2 ag,PKD1 kinase inh,HSV replic up,HSV replic up primary fold,Insulin prom inh,Insulin prom inh cell count,RGS16-Gao HTS
CN(Cc1ccccc1)Cc1nc2c(c(=O)n(C)c(=O)n2C)n1Cc1ccccc1Cl,-1.4,4,i,0.84,-80,116,101
O=C(COC(=O)c1ccc2c(c1)S(=O)(=O)N=C1CCCCCN12)NCCc1ccc(F)cc1,·,-2,i,0.78,-57,72,97
CC1CCCCN1Cc1cnc(Cl)s1 (centres undefined),-2.3,-3,i,0.89,-3,114,110
CCN1C(=O)N(c2ccc(Cl)cc2)C(C)=CC1(C)C,-0.5,-12,i,0.92,-29,75,95
CC(NC(N)=O)C(=O)Nc1ccc(Cl)c(S(=O)(=O)Nc2ccc(Cl)cc2)c1 (centres undefined),·,-1,i,1.1,-43,99,99
CCCn1c2c(c(O)c(C(=O)Nc3ncccc3O)c1=O)CCCC2,-2.2,-3,i,0.96,·,·,69
O=C(Cc1n[nH]c(=O)[nH]c1=O)N/N=C/CCc1ccccc1,·,·,i,1.1,·,·,98
Cc1ccc2cc(CN(Cc3nnnn3C3CCCCC3)CC3CCCO3)c(=O)[nH]c2c1 (centres undefined),-0.1,-3,i,1,-17,72,97
Cc1cc(NC(=O)CSc2nc3ccccc3c(=O)n2-c2ccccc2)no1,-2.9,-1,i,0.94,38,105,102
Cc1cccc(OCCC(=O)Nc2cc(S(=O)(=O)N3CCCCC3)ccc2N2CCOCC2)c1,·,-2,i,0.68,·,·,101

# With a hit mark in RGS16-Gao HTS, of those listed so far:
canonical_smiles,GALR2 ag,PKD1 kinase inh,HSV replic up primary fold,RGS16-Gao HTS
O=C(NCCCN1CCOCC1)c1sc2cc([N+](=O)[O-])ccc2c1Cl,·,3,0.94,25*
